HCMV UL50-53 inh: cytomegalovirus nuclear egress complex inhibition; HTRF UL50-UL53 interaction, normalized percent inhibition; actives 0.15% (n = 190,000); inhibition, % (test concentration not listed);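 active = both replicates at 50% or more, plus weaker picks with an unusually low signal ratio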;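 note: stock transfer was 100 nL into about 20 µL; 0% = negative control wells and 100% = wells with untagged competitor protein; inactives centre near -12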
Sa growth 42C: inhibitors of Staphylococcus aureus growth at 42 °C. S. aureus RN4220 growth, OD600, 20 h; hits give low values. relative growth, % (no concentration beside the values). actives 0.53% (n = 170,000);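 active = growth at 42 °C up to 50% and 20 or more points under that at 30 °C, or under 10% at both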;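 note: 300 nL library stock went into each well; scaled to the means of positive and negative controls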
GIV Gai3 FP: inhibitors of GIV GBA-motif binding to rat Galpha-i3. Galpha-i3/FITC-GIV peptide fluorescence polarization, 90 min; hits give low values; scaled: aluminum fluoride 0%, vehicle 100%. P08753. actives 0.42% (n = 210,000). percent of control (FP), % (no concentration beside the values);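 active = replicate mean at 85% of control or lower, very high polarization wells dropped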;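 note: wells of about 15 µL received 100 nL stock; the first replicate is given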
Target sequence (P08753 whole entry, looked up): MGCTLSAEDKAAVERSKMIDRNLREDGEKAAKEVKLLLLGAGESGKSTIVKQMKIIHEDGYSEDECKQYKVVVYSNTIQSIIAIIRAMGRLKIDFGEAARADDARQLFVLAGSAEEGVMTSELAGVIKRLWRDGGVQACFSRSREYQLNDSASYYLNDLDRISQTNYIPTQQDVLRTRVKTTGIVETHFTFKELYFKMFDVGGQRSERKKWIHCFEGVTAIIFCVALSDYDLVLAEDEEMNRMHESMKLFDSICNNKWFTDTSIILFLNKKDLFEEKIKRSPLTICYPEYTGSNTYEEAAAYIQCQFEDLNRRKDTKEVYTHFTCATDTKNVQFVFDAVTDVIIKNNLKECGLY
Sa growth 42C second temp: also measured in Sa growth 42C; calls as there; relative growth, %; measured here: growth at 30 °C;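 optical density after 20 h as mean of two plates; 100% = untreated growth and lower means inhibition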
An asterisk follows results filed as active; x = no result given; & = joins results of further samples.

1	COc1ccc(N=C2SC(CC(=O)Nc3ccc(F)cc3F)C(=O)N2CCCN2CCOCC2)cc1 (centres undefined)
2	O=C(O)Cn1c2ccccc2c2ccccc21
3	COc1cccc(CNc2nc3c(S(=O)(=O)c4ccccc4)nnn3c3ccsc23)c1
4	Cc1[nH]c(=O)c(C#N)c(C)c1CCC(=O)NC1CCCCCC1
5	Cc1oc(-c2ccc(Cl)cc2)nc1CS(=O)CC(=O)NCc1ccc(Cl)cc1 (centres undefined)
6	CN(C)c1ccc(/C=C2/SC(N3CCN(CCC#N)CC3)=NC2=O)cc1
7	COc1ccc(Cl)cc1N(CC(=O)NCCCC(C)(C)C1OCCO1)S(=O)(=O)c1ccc(C)c([N+](=O)[O-])c1
8	O=C(CSc1cccc[n+]1[O-])Nc1cccc(Oc2ccccc2)c1
screen / no.,1,2,3,4,5,6,7,8
Sa growth 42C second temp,86,87,x,93,83,88,x,92
Sa growth 42C,88,111,x,90,105,102,x,91
GIV Gai3 FP,x,101,107,x,110,182,114,x
HCMV UL50-53 inh,-27,33,14,10,-18,-78,16,6

9	COC(=O)c1cc(OC)c(OC)cc1NC(=S)N1CCN(C)CC1
10	CC1CC(C)CN(Cc2nc(N)nc(Nc3ccc4ccccc4c3)n2)C1 (centres undefined)
11	Cc1onc(-c2ccccc2)c1C(=O)NC1CCCCC1NC(=O)c1c(-c2ccccc2)noc1C (centres undefined)
12	Cc1ccccc1C(=O)N1CCC(C(=O)Nc2ccccc2)CC1
13	Cc1cc(NC(=O)CCc2nc3cccnc3n2-c2ccccc2)ccc1Br
14	COc1ccc(OC)c(CNC(=O)CCn2c(=O)c3cccn3c3ccc(F)cc32)c1
15	CCOC(=O)CCCn1nc(C)n2c(cc3sccc32)c1=O
16	CCN(C(=O)Cn1c(=O)n(Cc2ccc3c(c2)OCO3)c(=O)c2ccccc21)c1cccc(C)c1
screen / no.,9,10,11,12,13,14,15,16
Sa growth 42C second temp,101,0,78,88,90,90,89,83
Sa growth 42C,100,11,100,101,115,83,121,106
GIV Gai3 FP,101,x,103,x,106,97,104,102
HCMV UL50-53 inh,-6,-31,-16,-6,-30,-13,-13,x

17	COc1cc(NC(=O)c2cc3cc4ccc(OC)c(Cl)c4nc3s2)cc(OC)c1
18	CC1(C)CC(=O)c2cn3ncnc3nc2C1
19	COc1cc(NCCCC(C)N)c2ncccc2c1 (centres undefined)
20	CCOC(=O)CSc1nc2c(c(=O)[nH]1)C(CC)(C1CCCCC1)Cc1ccccc1-2 (centres undefined)
21	Cn1nc(C(=O)NCc2ccc(Cl)cc2)c2c1CCN(C(=O)c1cccc(F)c1)C2
22	COc1ccc(CNC(=O)c2nc(SCc3ccccc3F)ncc2Cl)cc1
23	O=C(COc1ccccc1)N1CCC2(CC1)Nc1ccccc1-n1cccc12
24	Cc1ccc(N2C(=O)CN(S(=O)(=O)c3ccccc3)CC2(C)C(=O)NC2CCCC2)cc1F (centres undefined)
screen / no.,17,18,19,20,21,22,23,24
Sa growth 42C second temp,87,85,85,x,x,79,x,x
Sa growth 42C,82,92,98,x,x,108,x,x
GIV Gai3 FP,102,102,104,99,104,107,99,102
HCMV UL50-53 inh,x,-17,x,-15,-16,-3,-42,-28

25	CC(C)NC(=O)c1ccccc1NC(=O)CN1C(=O)c2cccc3cccc1c23
26	COC(=O)c1ccccc1NC(=O)N1CCN(c2ccc(-c3noc(C)n3)cc2)CC1
27	CCN1CCN(c2sc(S(C)(=O)=O)nc2S(=O)(=O)c2ccc(Cl)cc2)CC1
28	COc1ccc(-c2nc3cc(C)ccn3c2NC(=O)c2ccc(F)cc2)cc1
29	CCc1cccc(NS(=O)(=O)c2ccc3[nH]c4c(c3c2)CCCC4)c1
30	CC1(C(=O)Nc2cccc(Br)c2)Cc2ccccc2C(=O)O1 (centres undefined)
31	Cc1ccc(CNCc2cccn2-c2sc(C)c(C)c2C(=O)O)cc1
32	O=C(CCS(=O)(=O)c1cc2c3c(c1)CCN3C(=O)CC2)NCc1ccc(Cl)cc1
screen / no.,25,26,27,28,29,30,31,32
Sa growth 42C second temp,89,x,91,89,62,84,76,85
Sa growth 42C,94,x,111,113,109,108,88,73
GIV Gai3 FP,x,110,102,109,97,109,104,100
HCMV UL50-53 inh,-41,-34,x,6,x,-2,-2,x

Whole records as entered above:
CCc1cccc(NS(=O)(=O)c2ccc3[nH]c4c(c3c2)CCCC4)c1 reads Sa growth 42C second temp: 62; Sa growth 42C: 109; GIV Gai3 FP: 97; HCMV UL50-53 inh: x
Cc1ccc(CNCc2cccn2-c2sc(C)c(C)c2C(=O)O)cc1 reads Sa growth 42C second temp: 76; Sa growth 42C: 88; GIV Gai3 FP: 104; HCMV UL50-53 inh: -2
COC(=O)c1ccccc1NC(=O)N1CCN(c2ccc(-c3noc(C)n3)cc2)CC1 reads Sa growth 42C second temp: x; Sa growth 42C: x; GIV Gai3 FP: 110; HCMV UL50-53 inh: -34

Arranged by count of non-hydrogen atoms (ascending): 5 of the compounds above
18	CC1(C)CC(=O)c2cn3ncnc3nc2C1
31	Cc1ccc(CNCc2cccn2-c2sc(C)c(C)c2C(=O)O)cc1
28	COc1ccc(-c2nc3cc(C)ccn3c2NC(=O)c2ccc(F)cc2)cc1
25	CC(C)NC(=O)c1ccccc1NC(=O)CN1C(=O)c2cccc3cccc1c23
20	CCOC(=O)CSc1nc2c(c(=O)[nH]1)C(CC)(C1CCCCC1)Cc1ccccc1-2 (centres undefined)
screen / no.,18,31,28,25,20
Sa growth 42C second temp,85,76,89,89,x
Sa growth 42C,92,88,113,94,x
GIV Gai3 FP,102,104,109,x,99
HCMV UL50-53 inh,-17,-2,6,-41,-15

(next part)
33	Cc1ccccc1Cn1c(=O)n(Cc2ccco2)c(=O)c2ccc(C(=O)NC3CCCC3)cc21
34	CCN1CCCC1CNCC(=O)Nc1ccccc1C(=O)NCCc1ccc(OC)cc1 (centres undefined)
35	O=C(Cc1n[nH]c(=O)c2ccccc12)N/N=C/c1ccc(-c2ccc(Br)cc2)o1
36	CCN1CCN(S(=O)(=O)c2ccc(Cl)c(C(=O)NCCc3ccc4c(c3)OCCO4)c2)CC1
37	O=C(O)CSCC(=O)Nc1ccccc1Oc1ccccc1
38	Cc1cc(C)cc(N2C(=O)CN(S(C)(=O)=O)CC2(C)C(=O)NC2CCCC2)c1 (centres undefined)
39	O=C(c1ccccc1)c1ccc(N2CCCC2)cc1
40	O=C(O)c1ccccc1Cc1nc2cc(C(F)(F)F)ccc2c(=O)[nH]1
screen / no.,33,34,35,36,37,38,39,40
Sa growth 42C second temp,82,91,87,94,98,x,93,100
Sa growth 42C,104,104,96,91,109,x,102,92
GIV Gai3 FP,102,x,106,x,104,102,101,x
HCMV UL50-53 inh,x,16,6,-16,7,1,-30,25

41	COc1ccc(CCN2C(=O)CSC2c2ccc([N+](=O)[O-])cc2)cc1OC (centres undefined)
42	Cc1ccccc1NC(=O)Cn1c(=O)n(Cc2ccc3c(c2)OCO3)c(=O)c2oc3ccccc3c21
43	O=C(Cc1n[nH]c(=O)c2ccccc12)Nc1ccccc1C(=O)NC1CCCC1
44	N#CCCNc1nncs1
45	COc1ccc(C(CNC(=O)c2ccccc2OC)c2c[nH]c3ccccc23)cc1 (centres undefined)
46	Cc1c(N2CCN(C(=O)CCC(=O)N3CCOCC3)CC2)c(=O)n(C)c(=O)n1C
47	COC(=O)C1(C)NC(c2ccccc2C)C2C(=O)N(C)C(=O)C21 (centres undefined)
48	O=S(=O)(c1ccc2oc3ccc(S(=O)(=O)N4CCCCCC4)cc3c2c1)N1CCCCCC1
screen / no.,41,42,43,44,45,46,47,48
Sa growth 42C second temp,x,94,98,97,x,x,104,85
Sa growth 42C,x,112,98,100,x,x,116,108
GIV Gai3 FP,99,99&99,x,104,103,105,101,101
HCMV UL50-53 inh,-76,-25,-18,-20,-20,-24,-8,x

In the list so far, three contain a cyano group:
4	Cc1[nH]c(=O)c(C#N)c(C)c1CCC(=O)NC1CCCCCC1
6	CN(C)c1ccc(/C=C2/SC(N3CCN(CCC#N)CC3)=NC2=O)cc1
44	N#CCCNc1nncs1
screen / no.,4,6,44
Sa growth 42C second temp,93,88,97
Sa growth 42C,90,102,100
GIV Gai3 FP,x,182,104
HCMV UL50-53 inh,10,-78,-20

The listing continues:
49	NS(=O)(=O)c1cccc(C(F)(F)F)c1
50	CCOC(=O)C1=C(N)C(=O)N(CCCN2CCOCC2)C1
51	Cc1cccc(NC(=O)CSc2c3c(nc4ccccc24)CCCC3)n1
52	Cn1c(-c2ccc3c(c2)OCO3)cnc1NCc1cc(Cl)ccc1O
53	CN(C)/C=N/c1nnc(SCc2ccc(F)cc2)s1
54	Cc1ccccc1NC(=O)COc1ccccc1C
55	CC(=O)c1ccc(NC(=O)Cn2c(=O)c3cccn3c3ccccc32)cc1
56	CCOC(=O)c1sc(NC(=O)c2sc(COc3cccc(C)c3)nc2C)nc1C
screen / no.,49,50,51,52,53,54,55,56
Sa growth 42C second temp,101,90,88,58,67,90,81,x
Sa growth 42C,102,110,109,132,91,101,108,x
GIV Gai3 FP,104,x,104,100,104,106,98,106
HCMV UL50-53 inh,5,-20,-10,-4,-20,-11,-4,-12

57	COc1cc(Cl)c(C)cc1NC(=O)COCc1cc(-c2ccco2)on1
58	CN(C(=O)CN1N=C(c2ccc(Cl)cc2)CCC1=O)c1ccccc1
59	CCCN1Cc2cccc(C(=O)Nc3cc(Cl)ccc3C)c2C1=O
60	COC(=O)C1=NNC2C(=O)N(c3cc(C)cc(C)c3)C(=O)C12 (centres undefined)
61	CCOCCCN=C1NC(C)(C)CS1
62	Cc1cc(Oc2ccccc2)nc(N)n1
63	Clc1nc(NCc2ccccc2)nc(NCc2ccccc2)n1
64	O=C(NCc1ccccc1F)C1CCN(Cc2cc3ccccc3n2Cc2cccc(Cl)c2)CC1
screen / no.,57,58,59,60,61,62,63,64
Sa growth 42C second temp,90,81,82,90,91,91,x,76
Sa growth 42C,84,100,105,127,78,94,x,115
GIV Gai3 FP,103,100,99,102,x,102,103,99
HCMV UL50-53 inh,-28,x,-22,-7,-28,-5,-2,x

65	CCOC(=O)c1c(C)[nH]c(C)c1S(=O)(=O)NCC(=O)Nc1cc(Cl)ccc1OC
66	O=C(NCc1cccs1)c1nn(-c2ccccc2)nc1CO
67	Cc1cccc(CS(=O)(=O)CC2Nc3ccc(C(=O)NCc4ccccc4Cl)cc3NC2=O)c1 (centres undefined)
68	CCOc1ccccc1NC(=S)NNc1nc2ccccc2o1
69	COc1ccc(Cl)cc1NC(=O)Cc1coc2c(C)c(C)ccc12
70	N#C/C(=C/Nc1ccc2c(c1)OCCO2)C(=O)NCc1ccco1
71	COC(=O)c1ccc(CSc2nncc(=O)n2N)o1
72	O=C(CCn1c(=O)c2cccn2c2cccnc21)Nc1ccccc1C(F)(F)F
screen / no.,65,66,67,68,69,70,71,72
Sa growth 42C second temp,85,86,95,87,96,77,88,85
Sa growth 42C,89,87,93,82,103,105,90,107
GIV Gai3 FP,106,98,239,x,107,110,104,102
HCMV UL50-53 inh,x,-37,x,-2,1,4,-25,x

73	CCC(=O)Nc1cccc(-c2nnc3c4ccccc4c(C)nn23)c1
74	CC(=O)Nc1ccc2nc(SCCOc3cc(C)cc(C)c3)sc2c1
75	O=C(NCCc1ccccc1)c1cnc(N2CCCC2)nc1
76	Cc1ccccc1C(=O)Nc1ccc(S(=O)(=O)N2CCC(c3nc4ccccc4s3)CC2)cc1
screen / no.,73,74,75,76
Sa growth 42C second temp,96,96,89,85
Sa growth 42C,82,88,97,96
GIV Gai3 FP,105,99,98,99
HCMV UL50-53 inh,x,-1,-25,-22

Limited to HCMV UL50-53 inh, Sa growth 42C and Sa growth 42C second temp, for some of the entries so far:
| entry | canonical_smiles | HCMV UL50-53 inh | Sa growth 42C | Sa growth 42C second temp |
| --- | --- | --- | --- | --- |
| 75 | O=C(NCCc1ccccc1)c1cnc(N2CCCC2)nc1 | -25 | 97 | 89 |
| 76 | Cc1ccccc1C(=O)Nc1ccc(S(=O)(=O)N2CCC(c3nc4ccccc4s3)CC2)cc1 | -22 | 96 | 85 |

From PubChem BioAssay
